Screening data deposited in PubChem by several laboratories.
Mtb H37Rv: M. tuberculosis H37Rv growth inhibitors, H37Rv strain (AID 1626); M. tuberculosis H37Rv growth inhibition; higher % means a stronger effect; inhibition, % at 10 µM; hits with a dose series show IC50 in µM; 0.95% of 220,000 active;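 active = confirmed in a dose series; inconclusive = inhibition above 80% but not taken into the dose series; inactive = below 80% or under 30% at every dose of the series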;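 note: bacteria incubated seven days before Alamar blue readout; 0% = bacteria only wells and 100% = bacteria with antibiotic wells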
Arbovirus inh: blocks arbovirus infection; arbovirus infection cell-based antiviral screen; inhibition, % at 10 µM; 0.37% of 200,000 active; AID 1251;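 active = inhibition from about 30%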;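 note: bluetongue infection of BSR cells; cell survival read as ATP light after 72 h; 0% = infected wells without compound and 100% = uninfected wells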
RecA intein inh: Mtb RecA intein splicing inhibition; P9WHJ3; AID 2221; cell-free RecA intein splicing, fluorescence; inhibition, %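 (about 9 µM by stock and volumes)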; 0.75% of 290,000 active; in the data active = inhibition above about 30%; inconclusive = no clear call, values can overlap the other calls;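 note: 0% = vehicle wells and 100% = reference inhibitor control wells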
Target sequence (P9WHJ3 whole entry, looked up): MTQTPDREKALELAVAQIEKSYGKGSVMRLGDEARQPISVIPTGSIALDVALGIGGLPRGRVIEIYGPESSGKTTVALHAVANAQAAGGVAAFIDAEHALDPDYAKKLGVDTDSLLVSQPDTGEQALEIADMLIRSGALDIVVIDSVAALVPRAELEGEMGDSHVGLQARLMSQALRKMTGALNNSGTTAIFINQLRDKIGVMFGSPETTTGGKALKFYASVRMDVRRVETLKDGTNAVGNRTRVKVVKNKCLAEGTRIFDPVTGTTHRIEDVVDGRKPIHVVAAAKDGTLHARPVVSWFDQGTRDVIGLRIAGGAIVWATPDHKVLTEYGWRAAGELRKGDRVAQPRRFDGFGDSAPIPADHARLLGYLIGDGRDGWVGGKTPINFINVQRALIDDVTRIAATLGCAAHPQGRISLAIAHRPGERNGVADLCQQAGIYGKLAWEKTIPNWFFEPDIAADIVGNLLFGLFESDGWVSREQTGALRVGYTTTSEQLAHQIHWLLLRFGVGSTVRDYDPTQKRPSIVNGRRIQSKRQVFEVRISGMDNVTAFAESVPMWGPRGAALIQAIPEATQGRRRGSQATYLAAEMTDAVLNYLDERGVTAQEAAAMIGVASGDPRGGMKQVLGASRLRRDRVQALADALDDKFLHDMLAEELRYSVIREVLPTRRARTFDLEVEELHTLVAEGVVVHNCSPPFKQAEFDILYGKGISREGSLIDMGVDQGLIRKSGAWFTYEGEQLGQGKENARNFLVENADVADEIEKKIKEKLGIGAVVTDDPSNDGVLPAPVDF
YopH PTP inh: inhibitors of Yersinia enterocolitica YopH tyrosine phosphatase. fluorescence Ex485/Em525. inhibition, %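 (about 10 µM by stock and volumes)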. 0.16% of 140,000 active. AID 898;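 active = inhibition of 50% or more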;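 note: controls were vehicle for no effect and minimum signal wells for full effect; inactives centre near -20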
Mtb bLac sens: beta-lactam sensitization of Mtb H37Rv; M. tuberculosis H37Rv growth with meropenem, percent inhibition; hits of this screen are not shown here; inhibition, % at 25 µM; 0.27% of 330,000 active; AID 434955;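 active = about 74% or more and at least 40 points above the plate without the antibiotic, then above 30% in a dose series; inconclusive = first-round hits that could not be retested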;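 note: growth measured after seven days incubation then overnight dye step; 0% = bacteria only wells and 100% = bacteria with antibiotic; twin plates without the antibiotic show which effects depend on it; some results filed as inactive read as strong as hits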
Arbovirus inh repeat: further read-out of Arbovirus inh, marked with its call; inhibition, %; measured here: 10K subset replicate screen; many hits read low in the repeat;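 first of two repeat runs on a subset; 0% = infected and 100% = uninfected wells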
Starred values were filed as active, the others as inactive; ? = inconclusive; · = not tested or not shown. Not all compounds are listed; rates above refer to the full screens.

SMILES	Mtb H37Rv	Arbovirus inh	RecA intein inh	YopH PTP inh	Mtb bLac sens	others
COc1cc(NS(=O)(=O)c2cc(C)ccc2OC)c(OC)cc1Cl	-4.3%	7.7	-0.9	-24.3	-4.6
CCOc1ccc(N2CC(NS(=O)(=O)c3cccs3)CC2=O)cc1 (stereo not given)	·	·	-0.7	·	-2.2
S=c1cnc2ccccc2[nH]1	-2.9%	7.2	1.6	·	-1.6
CCCNC(=O)CN(c1ccccc1)S(=O)(=O)c1ccc(OC)c(OC)c1	0.1%	0.5	·	-21.4	-5.0
CCN(CC)S(=O)(=O)c1ccc(Cl)c(C(=O)NC(C)C(c2cccs2)N2CCCC2)c1 (stereo not given)	-5.5%	-17.2	0.8	·	-0.4
COc1ccc(-c2c(C)nn3c(-c4ccccc4)cc(C)nc23)cc1	1.7%	-8.5	-2.9	·	0.1
Cc1ccccc1NC(=S)Nc1ccccn1	3.4%	·	-0.7	·	2.6
O=C(O)CCCC(=O)NCCCc1ccccc1	2.1%	9.1	·	-36.4	-5.5	Arbovirus inh repeat=-1.1
O=C(CNC(=O)c1ccccc1)N/N=C/c1cccs1	0.2%	-5.1	0.8	·	3.7
COc1ccc(S(=O)(=O)Nc2ccccc2OC)cc1C	-1.1%	2.1	1.6	-11.9	12.2
CCOc1cccc(OCCCOc2cccc3cccnc23)c1	12.5%	9.4	2.9	-7.6	5.6
CCCCCCC1CC(C)(/C(C)=N/NC(N)=O)OC1=O (stereo not given)	0.0%	-9.3	0.3	-90.7	0.7
COC(=O)c1cc(S(=O)(=O)Nc2cc(OC)cc(OC)c2)cn1C	·	·	2.4	·	-0.5
Cc1cc2oc(C(=O)Nc3c(C)n(C)n(-c4ccccc4)c3=O)c(C)c2cc1C	8.6%	0.9	0.9	-45.9	44.3
c1ccc(CCNc2nc(-c3ccccn3)cs2)cc1	?	-33.7	6.9	·	95.4
Cc1cc(C)c(C#N)c(SCC(=O)c2cccs2)n1	-2.0%	-9.1	-0.1	-39.6	10.8	Arbovirus inh repeat=-4.5
O=C(CC1Sc2ccccc2NC1=O)Nc1ccccc1[N+](=O)[O-] (stereo not given)	10.0%	-1.1	-5.2	15.8	3.3
COc1ccc(C2C(C(=O)N3CCN(c4ccc(OC)cc4)CC3)c3ccccc3C(=O)N2C)cc1 (stereo not given)	-2.5%	-7.9	1.8	0.3	0.6	Arbovirus inh repeat=-1.4
COc1ccccc1C/C(N)=N/OC(=O)/C=C/c1ccccc1	3.6%	8.5	3.8	·	6.1
CCN(CC)CCCn1c2c(c(SCC(=O)Nc3ccc(C)c(F)c3)nc1=O)CCC2	·	·	-0.4	·	1.3
CCOC(=O)/C(=N/O)C1=NC(C)(C)Cc2cc(C)c(C)cc21	-14.8%	7.0	0.0	·	-4.3
Cc1ccc([C@@H]2[C@@H]3C(=O)N(c4ccccc4)C(=O)[C@@H]3[C@]3(C)C(=O)N(CC4CC4)CC(=O)N23)o1	·	·	1.1	·	-6.9
CC(=O)Nc1ccc(NC(=O)C(C)Oc2ccc(Cl)cc2Cl)cc1 (stereo not given)	-0.4%	-0.6	3.2	·	-6.7
NS(=O)(=O)c1ccc(N=C2C(=O)Nc3ccccc32)cc1	-2.7%	·	-3.9	·	3.9
CCCCCN1CC(=O)N2C(C)c3[nH]c4ccccc4c3C[C@H]2C1=O (stereo not given in full)	·	·	-1.0	·	?
COc1ccc(C)cc1S(=O)(=O)N(CC(=O)Nc1cccc([N+](=O)[O-])c1)c1ccc(C)c(C)c1	4.4%	5.5	-4.8	-14.4	-3.3
O=C(N/N=C/c1ccc2c(c1)OCO2)c1ccc(NC(=O)c2ccccc2Cl)cc1	·	·	-2.3	·	-4.4
O=C(c1ccco1)N1CCCC(N2CCN(c3cccc(C(F)(F)F)c3)CC2)C1 (stereo not given)	·	·	2.0	·	-9.1
Cc1ccc(S(=O)(=O)N(C)C)cc1NC(=O)COC(=O)/C=C/c1cnc2ccccc2n1	5.0%	4.9	-38.9	·	6.8
CCCNC(=S)Nc1ccc(Br)cc1	8.9%	11.7	-9.0	-31.8	-0.6
C/C(=N\NC(=O)c1ccc2c(c1)OCO2)c1ccc(NC(=O)CCCC(=O)O)cc1	·	·	-2.2	·	-2.5
CC1=C2C(=O)C3C(CC=C4CC(O)CCC43C)C2CCC12OC1CC(C)CNC1C2C (stereo not given)	·	·	0.9	·	-1.0
CC(=O)c1c(C)nn(C(C)CC(=O)O)c1C (stereo not given)	-0.6%	-0.3	0.6	-35.0	-11.3
CCC(C(=O)O/N=C(\N)c1cccc(C)c1)c1ccccc1 (stereo not given)	-3.5%	0.2	3.7	-9.0	1.0
COc1cccc(C(C(=O)NC(C)(C)C)N(C(=O)CCC(=O)Nc2cc(C)on2)C(C)C)c1OC (stereo not given)	-9.1%	2.0	0.5	-6.2	7.6
O=C(O)CSCC(=O)N1CCN(c2ccnc3cc(Cl)ccc23)CC1	·	·	-0.2	·	7.4
CN1C(=O)C(C)(C)c2cc(S(=O)(=O)N3CCCC3C(=O)NCc3ccccc3Cl)ccc21 (stereo not given)	·	·	3.5	·	?
Cc1ccc(C(=O)C(C)OC(=O)Cc2n[nH]c(=O)c3ccccc23)cc1 (stereo not given)	·	·	0.4	·	-4.0
CC(NC(=O)c1ccco1)c1ccc(-n2ccnc2)cc1 (stereo not given)	·	·	0.6	·	-5.4
O=C(OC1CCCCC1)c1cc2ccccc2oc1=O	·	·	-1.3	·	81.0
CCOP(=O)(OCC)C(C#N)=C1SCN(c2ccccc2)CS1	-4.3%	·	-1.1	-11.5	0.0
CCCOC(=O)C1=C(C)NC2=C(C(=O)CC(C)(C)C2)C1c1cccnc1 (stereo not given)	-0.1%	-2.4	·	-22.8	1.6
O=C(C1=C[C@H](c2ccc3c(c2)OCO3)C[C@H](OCc2ccc(CO)cc2)O1)N1CCOCC1	-11.9%	-2.7	-1.6	·	-3.8
C#CCNC(=O)C1=C[C@@H](C2CC2)C[C@@H](OCc2ccc(CO)cc2)O1	-10.7%	8.2	-1.5	·	-4.3
CCN(CC)C(=S)SCC(=O)Nc1ccc(S(N)(=O)=O)cc1	-11.6%	2.4	4.6	·	4.2

Reprinted at random: 6 records from the list.
SMILES	Mtb H37Rv	Arbovirus inh	RecA intein inh	YopH PTP inh	Mtb bLac sens	others
CCOP(=O)(OCC)C(C#N)=C1SCN(c2ccccc2)CS1	-4.3%	·	-1.1	-11.5	0.0
CCN(CC)C(=S)SCC(=O)Nc1ccc(S(N)(=O)=O)cc1	-11.6%	2.4	4.6	·	4.2
Cc1ccc(C(=O)C(C)OC(=O)Cc2n[nH]c(=O)c3ccccc23)cc1 (stereo not given)	·	·	0.4	·	-4.0
O=C(C1=C[C@H](c2ccc3c(c2)OCO3)C[C@H](OCc2ccc(CO)cc2)O1)N1CCOCC1	-11.9%	-2.7	-1.6	·	-3.8
CN1C(=O)C(C)(C)c2cc(S(=O)(=O)N3CCCC3C(=O)NCc3ccccc3Cl)ccc21 (stereo not given)	·	·	3.5	·	?
CCC(C(=O)O/N=C(\N)c1cccc(C)c1)c1ccccc1 (stereo not given)	-3.5%	0.2	3.7	-9.0	1.0

Other records:
SMILES	Mtb H37Rv	Arbovirus inh	RecA intein inh	YopH PTP inh	Mtb bLac sens	others
O=C1[C@H]2[C@@H](c3ccc(Cl)cc3)N3C(=O)N(c4cccc(F)c4)C(=O)[C@@]3(Cc3ccccc3)[C@H]2C(=O)N1C1CCCCC1	·	·	-3.4	·	-0.5
C/C(=N/NC(=O)c1nnn(-c2nonc2N)c1-c1ccccc1)c1ccncc1	·	·	1.0	·	8.6
COc1ccc(S(=O)(=O)Nc2cccc(C(C)=O)c2)cc1Br	12.4%	16.5	2.7	·	-3.4
Cc1ccc(S(=O)(=O)Nc2ccccc2F)cc1C(=O)NCCCN1CCCC1=O	-3.0%	6.8	0.5	-39.7	-12.4
COc1ccc(N2CC(C(=O)NCCS(=O)(=O)N3CCN(c4ccccc4)CC3)CC2=O)cc1 (stereo not given)	·	·	-2.0	·	1.9
Cn1c(=O)c2c(nc(Cl)n2CC(=O)NC2(C#N)CCCCC2)n(C)c1=O	·	·	-3.6	·	-2.8
O=C(O)c1ccc(Cn2cnc3cccnc32)cc1	·	·	1.4	·	2.8
CC1CN(C(=O)COC(=O)c2ccc(N)c([N+](=O)[O-])c2)CC(C)O1 (stereo not given)	-2.8%	2.2	-4.1	-12.9	-0.3
Cc1nnc(NC(=O)CSc2ccccc2N)s1	·	·	2.4	·	-9.4
O=C(COc1ccc2c(c1)OCO2)Nc1nncs1	·	·	1.1	·	2.0
CCN(C(=O)CSc1cc(C)c2ccccc2n1)c1c(N)n(Cc2ccccc2)c(=O)[nH]c1=O	-3.0%	2.6	3.7	·	0.8
CCN(CC)CC#CCC(O)(c1ccccc1)C1CCCCC1 (stereo not given)	-9.2%	-7.5	-1.1	·	9.7
Cc1cccc2c(N)c3c(nc12)CCCC3 (tested in a mixture with another compound)	-0.4%	8.1	·	·	·
Cc1nc(C(=O)NCC(=O)c2ccc(Cl)cc2)c(C(F)(F)F)o1	-4.7%	·	2.4	·	-2.4
Fc1ccc(-[n+]2nc(Nc3ccccc3)sc2-c2c(Cl)cccc2Cl)cc1	·	·	13.2	·	69.5
O=c1[nH]c(Nc2ccc3c(c2)OCCO3)nnc1Cc1ccccc1	4.4%	11.3	-0.2	·	-3.4
CC(C)C(c1nnnn1Cc1ccc2c(c1)OCO2)N1CCN(C)CC1 (stereo not given)	-6.3%	6.4	·	-3.0	-8.8
Cc1nc(NC(=O)c2ccccc2[N+](=O)[O-])sc1C(=O)N(C)C	-5.0%	8.0	-0.6	-10.7	3.3
N#CC(Nc1ccccc1)c1ccccc1OCc1ccccc1 (stereo not given)	5.5%	-23.8	-3.5	-21.5	-6.0
COc1ccc(Cl)cc1C(=O)Nn1c(C)nc2ccccc2c1=O	7.2%	1.3	-1.9	-40.5	3.0
O=C(NNC(=O)c1ccc([N+](=O)[O-])o1)c1ccccc1	?	-2.8	39.2*	-8.7	100.0
COc1ccc(Br)cc1CN(C)C(=O)c1ccc2c(c1)NC(=O)C(C)S2 (stereo not given)	-2.1%	-0.3	-3.0	·	0.6
CC(=O)c1ccc(OC(=O)N(C)c2ccccc2)cc1	4.7%	4.7	1.8	·	-2.3
O=C(CCl)NN=C(c1ccccc1)c1ccccc1	76.1%	-30.4	59.0*	·	98.8
Cc1cc(=O)[nH]c(N2CCCNCC2)n1	·	·	-1.2	·	1.6
O=C(CN1CCOCC1)Nc1c(Cl)cc(Cl)cc1Cl	-4.4%	3.3	·	·	5.1
CCCCC(=O)Nc1c2c(nn1-c1cccc(C)c1C)CS(=O)(=O)C2	·	·	-1.3	·	0.4
O=C(CCC(=O)c1ccccc1)Nc1cccnc1	-1.2%	-3.4	-1.4	-8.1	-3.4
C/C(=N\NC(=O)Cn1c(C)nc2ccccc21)c1cccs1	2.8%	14.9	-1.9	-21.7	4.3
CCOC(=O)N1CCN(CCC(=O)Nc2ccccc2)CC1	·	·	-2.7	·	-2.6
OCCc1ccc(-c2ccc(Cl)cc2)o1	23.5µM*	6.0	4.4	10.3	90.2
COc1ccc(S(=O)(=O)Cc2ccc(C(=O)NCc3ccccn3)o2)cc1	-2.2%	8.4	1.6	·	-8.8
CC1CCN(C(=O)CSc2nc3c(cnn3-c3ccccc3)c(=O)[nH]2)CC1	2.7%	-2.3	-1.4	2.6	1.6	Arbovirus inh repeat=-5.4
CCc1cccc(C)c1NC(=S)NCC1CCN(c2ccc(OC)cc2)C1 (stereo not given)	-4.5%	14.6	4.7	·	-1.4
O=S(=O)(c1ccccc1)c1cnn(-c2ccccc2)c1-c1ccc(F)cc1	-1.1%	-6.2	10.0	-39.9	5.8
FC(F)Sc1ccc(NC(=S)NCc2ccccc2)cc1	5.8%	-18.4	6.2	·	-3.6
Cc1cc(N/C=C\C(=O)c2ccc(Cl)c(Cl)c2)no1	8.4%	2.5	1.9	-38.9	11.8
Cc1cc(C(C)(C)C)oc1C(=O)N(CC(=O)NC1CCCC1)Cc1ccccc1Cl	-1.6%	-33.7	22.4	-15.0	10.2
Cc1ccccc1S(=O)(=O)Oc1ccccc1C(=O)Oc1ccccc1	·	8.8	5.3	-38.1	98.4
COc1ccc(OCC(=O)NS(=O)(=O)c2ccccc2)cc1	·	·	-0.5	·	-0.8
Cc1cc(C(C)(C)C)oc1C(=O)N(CC(=O)NC1CCCC1)c1c(C)cccc1C	51.9%	-30.1	23.9	-11.4	62.4

Sorted by SMILES length (high to low): part of the list above.
SMILES	Mtb H37Rv	Arbovirus inh	RecA intein inh	YopH PTP inh	Mtb bLac sens	others
Cc1cc(C(C)(C)C)oc1C(=O)N(CC(=O)NC1CCCC1)c1c(C)cccc1C	51.9%	-30.1	23.9	-11.4	62.4
Cc1ccccc1S(=O)(=O)Oc1ccccc1C(=O)Oc1ccccc1	·	8.8	5.3	-38.1	98.4
FC(F)Sc1ccc(NC(=S)NCc2ccccc2)cc1	5.8%	-18.4	6.2	·	-3.6
